YopH inh = blocks Yersinia enterocolitica YopH tyrosine phosphatase | fluorescence Ex485/Em525 | inhibition, %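 (about 10 µM by stock and volumes)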 | 0.16% of 140,000 active | AID 898;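 active = inhibition of 50% or more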;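 note: controls were vehicle for no effect and minimum signal wells for full effect; inactives centre near -20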
RecA splice inh = Mtb RecA intein splicing inhibition. P9WHJ3. cell-free RecA intein splicing, fluorescence. inhibition, %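 (about 9 µM by stock and volumes)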. 0.75% of 290,000 active; in the data active = inhibition above about 30%; inconclusive = no clear call, values can overlap the other calls;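 note: 0% = vehicle wells and 100% = reference inhibitor control wells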
Target sequence (P9WHJ3 whole entry, looked up, canonical isoform): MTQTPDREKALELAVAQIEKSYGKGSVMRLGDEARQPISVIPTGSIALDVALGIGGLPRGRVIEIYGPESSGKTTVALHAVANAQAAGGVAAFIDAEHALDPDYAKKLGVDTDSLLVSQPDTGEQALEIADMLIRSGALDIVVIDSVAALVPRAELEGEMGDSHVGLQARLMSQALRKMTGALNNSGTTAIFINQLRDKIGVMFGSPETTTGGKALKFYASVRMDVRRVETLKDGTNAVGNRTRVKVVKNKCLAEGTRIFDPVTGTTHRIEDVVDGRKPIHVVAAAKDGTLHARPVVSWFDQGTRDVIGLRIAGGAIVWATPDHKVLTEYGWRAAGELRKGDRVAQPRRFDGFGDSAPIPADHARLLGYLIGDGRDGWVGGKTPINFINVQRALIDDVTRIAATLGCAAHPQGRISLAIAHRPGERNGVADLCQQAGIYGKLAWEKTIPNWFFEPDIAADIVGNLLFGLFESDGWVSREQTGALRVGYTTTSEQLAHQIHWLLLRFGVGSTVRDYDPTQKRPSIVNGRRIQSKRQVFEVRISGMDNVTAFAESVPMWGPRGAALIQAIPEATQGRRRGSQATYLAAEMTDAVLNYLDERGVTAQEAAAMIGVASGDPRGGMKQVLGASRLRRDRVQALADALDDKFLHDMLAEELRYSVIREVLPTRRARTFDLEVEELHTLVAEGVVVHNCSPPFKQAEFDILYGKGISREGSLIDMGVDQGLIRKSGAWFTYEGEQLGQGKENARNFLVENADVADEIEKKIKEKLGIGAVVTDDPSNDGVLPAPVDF
Arbovirus inh = arbovirus infection inhibition. arbovirus infection cell-based antiviral screen. inhibition, % at 10 µM. 0.37% of 200,000 active;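 active = inhibition from about 30%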;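 note: bluetongue infection of BSR cells; cell survival read as ATP light after 72 h; 0% = infected wells without compound and 100% = uninfected wells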
Mtb betalactam = beta-lactam sensitization of Mtb H37Rv; M. tuberculosis H37Rv growth with meropenem, percent inhibition; hits of this screen are not shown here; inhibition, % at 25 µM; 0.27% of 330,000 active;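 active = about 74% or more and at least 40 points above the plate without the antibiotic, then above 30% in a dose series; inconclusive = first-round hits that could not be retested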;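 note: growth measured after seven days incubation then overnight dye step; 0% = bacteria only wells and 100% = bacteria with antibiotic; twin plates without the antibiotic show which effects depend on it; some results filed as inactive read as strong as hits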
Mtb H37Rv = M. tuberculosis H37Rv growth inhibitors, H37Rv strain (AID 1626); M. tuberculosis H37Rv growth inhibition; higher % means a stronger effect; inhibition, % at 10 µM; hits with a dose series show IC50 in µM; 0.95% of 220,000 active;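 active = confirmed in a dose series; inconclusive = inhibition above 80% but not taken into the dose series; inactive = below 80% or under 30% at every dose of the series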;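 note: bacteria incubated seven days before Alamar blue readout; 0% = bacteria only wells and 100% = bacteria with antibiotic wells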
Arbovirus inh repeat = second read-out of Arbovirus inh, no call of its own (marks repeat the call); inhibition, %; measured here: 10K subset replicate screen; many hits read low in the repeat;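 first of two repeat runs on a subset; 0% = infected and 100% = uninfected wells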
The depositor's hits bear a star; ? = inconclusive; / = not tested or not shown.

SMILES | YopH inh | RecA splice inh | Arbovirus inh | Mtb betalactam | Mtb H37Rv | others
COc1ccc(S(=O)(=O)N2CCOCC2)cc1C(=O)Nc1cc(C)on1 | -60 | -4.6 | -3 | -1 | -1%
CCc1nnc(NC(=O)C2CCC2)s1 | -47 | -1.7 | 1 | -8 | 0%
CSc1nc(N2CCOCC2)c2ccccc2n1 | -18 | 0.3 | 0 | ? | -2%
O=C(Nc1cccc(Br)c1)c1ccc(OC2CSC2)cc1 | / | -1.0 | -14 | 4 | 4%
O=C(CCCSc1nc2ccccc2c(=O)[nH]1)c1ccc(F)cc1 | / | 0.4 | 4 | 8 | 12%
COc1ccccc1OCC(=O)Nc1ccc(S(=O)(=O)Nc2nccs2)cc1 | / | -2.3 | / | 4 | /
CCN1CCCC1CNC(=O)C(=O)Nc1ccccc1OC (stereo not given) | -32 | 1.0 | -2 | 5 | -3%
O=C(O)c1oc2ccccc2c1CSc1ccccn1 | -33 | -0.9 | 3 | 1 | -5%
Cc1cc(S(=O)(=O)N2CCN(c3ccccc3F)CC2)ccc1-n1cnnn1 | / | 1.3 | / | 3 | /
O=C(CSc1nnc(-c2ccccc2)n1-c1ccc(Cl)cc1)N/N=C/c1ccco1 | -26 | 1.1 | 1 | -18 | -4%
O=C(N/N=C/c1ccc2c(c1)OCO2)c1cc(-c2ccncc2)nc2ccccc12 | -33 | -0.1 | -13 | -1 | 3%
COc1ccccc1N1CCN(Cc2ccc(F)cc2)CC1 | / | 1.6 | 2 | -1 | 4%
COc1ccc(Oc2nc3ccccc3n3cccc23)cc1 | 9 | 0.8 | -5 | -5 | -6%
COCCc1nc2ccc(C(=O)NCc3cccc(-n4cccn4)c3)cc2o1 | / | 0.8 | / | -1 | /
Cc1cc(C)cc(NC(=S)NC2CC3CCCC(C2)N3C2CC2)c1 (stereo not given) | / | -2.7 | -2 | 97 | -6%
CCOc1ccc(NC(=O)CN(C)c2nnnn2-c2ccccc2)cc1OCC | -51 | 4.4 | 6 | -3 | -10%
CCN(Cc1ccccc1)C(=O)COC(=O)CNC(=O)c1ccc(C)s1 | / | 0.5 | 5 | 5 | 6%
Cc1cc(=O)[nH]c(Sc2c(-c3ccccc3)c3ccccc3[nH]c2=O)n1 | -42 | -1.3 | 8 | -3 | -6%
COc1ccc(S(=O)(=O)N2CCOCC2)cc1NC(=O)CSc1ncnc2ccccc12 | / | 2.0 | 9 | 2 | 3%
CCc1nnc(NC(=O)CSc2nnnn2-c2cccc(C(=O)OC)c2)s1 | -13 | 1.9 | 5 | 99 | -2%
COC(=O)[C@H]1[C@@H](C)N(Cc2ccccc2)C(=O)N[C@H]1c1cccc(C(F)(F)F)c1 | / | 1.7 | / | -6 | -7%
COc1ccc(CNC(=O)COC(=O)C2CCN(S(=O)(=O)c3ccccc3C(F)(F)F)CC2)cc1 | -26 | 0.7 | -1 | 4 | 2%
COc1cc(O)cc2c1C(=O)OC(C)CCCC(=O)CCC/C=C\2 (stereo not given) | / | 0.5 | / | 1 | /
C=CCn1c(SCC(=O)NC2CCCC2)nc2c([nH]c3ccccc32)c1=O | / | 0.5 | / | -14 | /
CC(CCc1ccccc1)NC(=O)CC(C)c1ccccc1 (stereo not given) | / | 2.5 | / | -2 | /
Cc1cccc(N2C(=O)CC(=O)NC2=O)c1 | 33 | 1.0 | 6 | 5 | -19%
COc1ccccc1/C=N/n1nnnc1N | / | -4.6 | / | 2 | /
CCN(CC)S(=O)(=O)c1ccc(N2CCOCC2)c(NC(=O)COc2ccc(Cl)cc2)c1 | / | -1.4 | / | -2 | 14%
Cc1cc(/C=C2/C(=N)N3C(=NC2=O)SN=C3S(C)(=O)=O)c(C)n1-c1ccc(F)cc1 | / | -12 | 37* | -1 | -3%
O=C(CCc1nc(-c2ccc(Cl)cc2)no1)NC1CCCC1 | / | -1.1 | / | -11 | /
CC(C)c1cc(C(N)=O)c(NC(=O)c2cccc(COc3ccc(Cl)cc3)c2)s1 | 2 | -1.7 | -6 | 10 | /
O=C(Nc1cccc(Cl)c1)N1CCc2ccccc2C1 | / | 3.1 | / | -4 | /
O=C(c1ccc([N+](=O)[O-])cc1)N(C1=NCCCCS1)c1ccccc1 | 6 | -0.7 | 2 | -2 | -14%
O=C(NCc1cccnc1)C(=O)N/N=C/c1ccc([N+](=O)[O-])cc1 | / | / | -6 | -5 | 1%
COc1ccc(NC(=S)N2CCc3ccccc3C2)cc1 | -16 | -2.6 | -6 | -2 | 0%
CCn1c(=O)c(C(=O)NCc2ccccc2Cl)c(O)c2ccccc21 | / | 0.4 | / | -6 | /
Cc1cccn2c(=O)c3cc(C(=O)N4CCCCC4)sc3nc12 | / | -11 | / | 5 | /
O=C(C1=NNC2C(=O)N(c3ccccc3)C(=O)C12)c1nc(Cl)ccc1Cl (stereo not given) | -39 | -4.3 | 0 | -2 | 1%
O=C(Cc1ccccc1)N1CCC(c2nc(-c3ccc(F)cc3)no2)CC1 | -29 | 4.1 | 9 | 8 | -1%
Cc1cccc(N=C2NC(=O)/C(=C/c3cccn3C)S2)c1C | / | 3.1 | / | -3 | 2%
Cc1ccc(NCCC(=O)c2ccccc2)cc1Cl | / | -0.8 | 5 | 94 | ?
CSc1ncccc1C(=O)OCC(=O)c1ccccc1 | / | -0.3 | 1 | -1 | 12%
Cc1ccc(NC(=O)CN(C)S(=O)(=O)c2cccc3nsnc23)cc1 | -41 | 1.2 | 12 | -14 | 13%
O=C(NCCc1ccccn1)C1CCN(S(=O)(=O)c2ccc3ccccc3c2)CC1 | / | -1.6 | 27 | -12 | 5%
CCOC(=O)N1CCC(NS(=O)(=O)c2cc(Br)cnc2N)CC1 | -19 | 3.3 | 5 | -11 | 2%

Reprinted at random: 2 compounds from above.
SMILES | YopH inh | RecA splice inh | Arbovirus inh | Mtb betalactam | Mtb H37Rv | others
O=C(O)c1oc2ccccc2c1CSc1ccccn1 | -33 | -0.9 | 3 | 1 | -5%
COc1ccccc1/C=N/n1nnnc1N | / | -4.6 | / | 2 | /

(continued)
SMILES | YopH inh | RecA splice inh | Arbovirus inh | Mtb betalactam | Mtb H37Rv | others
O=C(c1cccc(-c2ccc(O)cc2)c1)N1CCOCC1 | -22 | / | -1 | 21 | 2%
CCOc1ccc(CN(C)CC(O)COC(c2ccc(OC)cc2)c2ccc(OC)cc2)cc1 (stereo not given) | / | -1.6 | / | 100 | /
O=[N+]([O-])c1cc(C(F)(F)F)cc([N+](=O)[O-])c1N1CCCNCC1 | / | 1.1 | 2 | -3 | 2%
Cc1cc(C)cc(N=C2NC(=O)/C(=C/c3cccs3)S2)c1 | -24 | 13 | 2 | 91 | 78%
CSc1nc2sc(-c3ccccc3)cc2c(=O)n1N | 6 | 2.3 | -15 | -2 | /
Cc1ccc(S(=O)(=O)NCC(=O)N(c2ccccc2)C(C(=O)NCc2ccccc2)c2ccco2)cc1 (stereo not given) | -42 | 6.1 | -10 | 9 | 3%
COc1ccc(Cl)cc1NC(=O)COC(=O)CCc1cc(OC)c(OC)c(OC)c1 | / | 2.3 | / | 7 | /
O=C(Nc1nnc(-c2ccc(Cl)cc2)o1)c1cccc(N2C(=O)CCC2=O)c1 | 2 | -0.3 | 7 | 16 | ?
CCN(C(=S)NCc1ccccc1)c1ccccc1 | / | 0.2 | -4 | 65 | -3%
CCOc1c(Br)cc(CNc2ccc(N3CCOCC3)cc2)cc1OC | / | -7.2 | / | 0 | -2%
Cc1cc(C(=O)Cn2nc(C(=O)O)c3ccccc3c2=O)c(C)n1-c1cccc(C(F)(F)F)c1 | / | 0.8 | / | 0 | /
Cc1ccc(NC(=O)C(C)SCc2nc3sc4c(c3c(=O)[nH]2)CCCC4)nc1 (stereo not given) | / | -3.5 | / | -12 | /
O=C(Nn1cc(C(=O)Nc2ccc(F)cc2F)c2ccccc2c1=O)c1cnccn1 | / | 0.5 | -24 | 88 | 58%
CC1(C)CC(=O)C=C(Nc2ccc(Br)cc2F)C1 | / | -0.2 | / | -6 | /
CCOC(=O)N1CCN(C(=O)c2c(-c3ccccc3)noc2C)CC1 | -36 | 0.1 | -2 | 5 | -9% | Arbovirus inh repeat=3
COc1ccc(C)cc1S(=O)(=O)N1CCC(C)CC1 | -46 | 0.0 | -1 | 5 | -17%
CC(O)(CS(=O)(=O)c1ccccc1)C(=O)Nc1cccc(C(F)(F)F)c1 (stereo not given) | -53 | -1.2 | 2 | -8 | -10%
CC(C)(C#N)NC(=O)c1ccco1 | -38 | 0.3 | -1 | -9 | -3%
Cc1occc1-c1nnc(SCC(=O)Nc2ccc3c(c2)OCO3)n1CC1CCCO1 (stereo not given) | -56 | 0.8 | 4 | -6 | -5%
COc1ccccc1C(=O)COC(=O)CNS(=O)(=O)c1ccc(C)cc1 | / | -1.9 | 4 | -9 | 9%
CCC(=O)c1ccc(OCC(=O)OCC(=O)c2cc(C)n(C3CC3)c2C)cc1 | / | 4.3 | / | 83 | /
CCOc1cc(-c2noc(-c3cccnc3)n2)ccc1OC | -53 | / | 0 | -5 | -6%
Cc1cccc(CCN(CC(=O)NC(C)(C)C)C(=O)c2csnn2)c1 | / | 0.0 | 1 | 0 | -4%
CSc1ccc(CNC2CN3CCC2CC3)cc1 (stereo not given) | -33 | -1.2 | 3 | -1 | -8%
O=c1c2ccccc2nc(-c2ccccc2)n1O | / | -2.0 | / | 57 | /
CSc1ccc(NC(=O)N2CCC(C(=O)c3ccc(F)cc3)CC2)cc1 | / | 0.3 | / | 53 | /
O=C(Nc1cc(C(F)(F)F)ccc1N1CCOCC1)c1ccc[n+]([O-])c1 | -14 | -2.1 | -3 | 3 | -2%
CC(=O)Nc1nc(SCCCc2ccccc2)n[nH]1 | -12 | 0.4 | 6 | -8 | 0%
COc1ccc2[nH]cc(CCNC(=O)Cc3ccc(Cl)cc3)c2c1 | / | 0.8 | / | 8 | /
COCCNC(=O)C(c1ccc(C)o1)N(C(=O)C(=O)NC1CCCCC1)c1ccc(F)cc1 (stereo not given) | / | 3.1 | 2 | -1 | -6%

6 structures already listed, ordered by count of non-hydrogen atoms, ascending.
SMILES | YopH inh | RecA splice inh | Arbovirus inh | Mtb betalactam | Mtb H37Rv | others
CC(C)(C#N)NC(=O)c1ccco1 | -38 | 0.3 | -1 | -9 | -3%
COc1ccc(C)cc1S(=O)(=O)N1CCC(C)CC1 | -46 | 0.0 | -1 | 5 | -17%
CCOc1cc(-c2noc(-c3cccnc3)n2)ccc1OC | -53 | / | 0 | -5 | -6%
COc1ccc2[nH]cc(CCNC(=O)Cc3ccc(Cl)cc3)c2c1 | / | 0.8 | / | 8 | /
O=C(Nc1cc(C(F)(F)F)ccc1N1CCOCC1)c1ccc[n+]([O-])c1 | -14 | -2.1 | -3 | 3 | -2%
COCCNC(=O)C(c1ccc(C)o1)N(C(=O)C(=O)NC1CCCCC1)c1ccc(F)cc1 (stereo not given) | / | 3.1 | 2 | -1 | -6%

The listing continues:
SMILES | YopH inh | RecA splice inh | Arbovirus inh | Mtb betalactam | Mtb H37Rv | others
Cc1cc(NS(=O)(=O)c2ccc(NC(=O)/C=C/c3ccccc3Cl)cc2)no1 | / | 2.0 | / | 47 | /
Cn1c(CCNC(=O)OC(C)(C)C)n[nH]c1=S | -10 | 0.3 | 5 | -5 | -7%
CC(C)NC(=O)Cn1c(=O)cnc2ccccc21 | -32 | -1.0 | 1 | 4 | 3%
CC12CCC(=O)N1C(C(=O)Nc1nnc(SCc3ccccc3)s1)CS2 (stereo not given) | / | 3.2 | / | -2 | /
CCOc1ccc(Cc2nc(-c3nonc3N)no2)cc1OCC | -34 | 1.9 | 2 | 0 | /
COCCn1c(SCC(=O)Nc2nnc(C)s2)nnc1-c1ccco1 | / | / | 1 | 2 | -8%
O=C(NC1CCCCC1)c1noc2c1CCCCC2 | -36 | 0.9 | 3 | -11 | 10%
CC1(C)Cc2c(sc3nc(-c4ccccc4)n(N)c(=O)c23)CO1 | -2 | -2.1 | 2 | 3 | -2%
COC(=O)CSc1nnc(-c2ccc(S(=O)(=O)N3CCCC3)cc2)n1C | -6 | 1.7 | 1 | -9 | -9%
CN(CC(=O)Nc1ccc(F)cc1)C(=O)COC(=O)CSc1ccc(F)cc1 | / | -2.3 | / | 0 | /
O=C(Oc1ccc(/C=N/NC(=O)c2ccccn2)cc1)c1ccc(Br)cc1 | / | 0.7 | / | 91 | /
O=C1Nc2ccccc2C(=O)C1(Cl)Cc1ccccc1 (stereo not given) | -31 | -2.7 | -10 | 4 | -9%
CN(Cc1cccc(F)c1)C(=O)c1cccc(S(=O)(=O)N2CCN(Cc3ccccc3)CC2)c1 | / | 5.7 | / | -16 | /
CCCn1nnnc1-c1cc(Cl)cc(Cl)c1 | -26 | -2.2 | -3 | -4 | -1%
CCCCOc1ccc(S(=O)(=O)Nc2ccc(NC(C)=O)cc2)cc1 | -39 | / | 7 | 5 | -23%
FC(F)(F)c1ccccc1NC(=S)N1CCc2ccccc2C1 | / | 5.6 | 12 | -6 | -8%

Only part of the results is shown; rates above refer to the full screens.
